Rango dissoc inh: qHTS Assay for Inhibitors of RanGTP induced Rango (Ran-regulated importin-beta cargo) - Importin beta complex dissociation | Snurportin-1 (Homo sapiens) + GTP-binding nuclear protein Ran (Homo sapiens) + Importin … | Biochemical FRET Rango-importin beta, RanGTP-induced dissociation | Potency, µM (top dose mostly 46.1 µM), without a hit: at the highest dose activity change, negative = inhibition | 340,000 compounds, 0.071% hits; active means falling FRET ratio curve, often poorly fitted, with flat reads before Ran was added; inconclusive means other falling curves, or compound fluorescence or quenching; inactive means flat or rising ratio curve;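 also: potency is read from the fitted curve at half-maximal effect; % of control where 0% means no effect; nearly all actives have a fitted effect of over 45% in size; -100% = wells without RanGTP and RCC1; the record marks most hits as doubtful in a second field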
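Compounds preincubate 5 min with complex of recombinant Rango and importin beta in PBS with 1 mM DTT. Ran (0.6 uM) loaded with 2 mM GTP plus 0.2 uM RCC1 starts dissociation; FRET is recorded 45 min later.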
miR-21 reporter: qHTS Assay for Modulators of miRNAs and/orActivators of miR-21. HeLa miR-21 FLuc reporter, luciferase, 48 h. Potency, µM (doses to about 38.3 µM), inactives show top-dose reporter change, positive = more light. 340,000 tested, under 10 active; active = well fitted rising curve with a large enough effect; inconclusive = small, poorly fitted or top-dose-only effect; inactive = no such curve, though single readings can be large or run the other way;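 also: % of control where 0% means no effect; miR-21 action dims this reporter so a rising signal means less miR-21 action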
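HeLa miR-21-FLuc reporter line, endogenous miR-21; 2000 cells/well in DMEM/10% FBS; compound titration up to ~40uM final, 48 h, 37 degree Celsius; luciferase detection reagent, 15 min lysis, CCD luminescence.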
GLA inh pH 4.5: qHTS Assay for Inhibitors of Human alpha-Galactosidase at pH 4.5. purified enzyme, 4-MU-alpha-Gal fluorescence, pH 4.5. Alpha-galactosidase A (Homo sapiens), P06280. activity change, negative = inhibition, % at 105 µM. 230,000 tested, under 10 active; inconclusive = small, poorly fitted or top-dose-only inhibition, or a rising curve; inactive = flat fitted curve, though single readings scatter; no compound was filed as active;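 also: 0% = full activity with enzyme and -100% = basal without enzyme; dose as in the result columns while the protocol names 77 µM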
Rango-impB inh: qHTS Assay for Inhibitors of Rango (Ran-regulated importin-beta cargo) - Importin beta complex formation. Rango CFP/YFP FRET sensor + importin beta, 45 min. 340,000 compounds, 0.031% hits. Importin subunit beta-1 (Homo sapiens), Q14974. Potency, µM (series often up to 92.2 µM), inactives show at the highest dose inhibition of complex formation; active = rising FRET ratio curve, often small or poorly fitted; inconclusive = mostly compound fluorescence or quenching in the first reads; inactive = flat curves in all reads;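 also: potency is read from the fitted curve at half-maximal effect; 0% = DMSO wells and 100% = buffer wells lacking importin beta; nearly all actives have a fitted effect of over 15% in size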
Target sequence (Q14974 whole entry, looked up): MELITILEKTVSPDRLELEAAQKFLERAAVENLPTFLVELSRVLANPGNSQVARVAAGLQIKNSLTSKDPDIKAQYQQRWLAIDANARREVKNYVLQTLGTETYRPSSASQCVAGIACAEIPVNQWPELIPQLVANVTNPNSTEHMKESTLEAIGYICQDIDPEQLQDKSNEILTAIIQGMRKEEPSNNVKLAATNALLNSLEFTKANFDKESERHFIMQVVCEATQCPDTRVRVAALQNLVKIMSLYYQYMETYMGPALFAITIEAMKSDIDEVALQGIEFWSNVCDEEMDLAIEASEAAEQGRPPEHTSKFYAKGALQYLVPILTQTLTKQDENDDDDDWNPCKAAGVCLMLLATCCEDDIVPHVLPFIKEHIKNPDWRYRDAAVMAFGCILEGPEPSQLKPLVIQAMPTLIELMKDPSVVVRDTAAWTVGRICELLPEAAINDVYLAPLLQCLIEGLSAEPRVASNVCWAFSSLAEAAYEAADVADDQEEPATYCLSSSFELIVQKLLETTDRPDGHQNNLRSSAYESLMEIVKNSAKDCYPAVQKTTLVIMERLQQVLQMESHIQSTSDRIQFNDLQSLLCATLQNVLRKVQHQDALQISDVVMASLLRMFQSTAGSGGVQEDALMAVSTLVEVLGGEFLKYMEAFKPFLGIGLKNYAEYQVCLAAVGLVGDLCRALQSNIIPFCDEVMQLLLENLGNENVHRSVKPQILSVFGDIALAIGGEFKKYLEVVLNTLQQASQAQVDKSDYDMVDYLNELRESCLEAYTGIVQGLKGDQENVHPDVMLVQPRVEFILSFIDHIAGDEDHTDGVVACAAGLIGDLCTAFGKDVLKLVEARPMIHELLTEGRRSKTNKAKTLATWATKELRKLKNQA
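FRET biosensor (snurportin 1 IBB flanked by EYFP and cerulean), 50 nM, with compound 5 min, then 0.125 microM importin beta in PBS, 1 mM DTT, 0.02% Tween-20, 0.1% BSA. CFP/YFP ratio read after 45 min at room temperature; pre-read flags interference.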
* = called active by the depositor; ? = inconclusive; . = no result given; & = joins results of further samples. This is a subset (hit frequency here may not be typical).

item	mol	GLA inh pH 4.5	Rango dissoc inh	Rango-impB inh	miR-21 reporter
1	COCc1cc(C)nc(Nc2cc(C)ccc2C)c1C#N	-3.5	-15.9%	6.2%	3.4%
2	C#C[C@]1(O)CC[C@H]2[C@@H]3CCc4cc(OC)ccc4[C@H]3CC[C@@]21C	.	1.7%	-0.7%	-13.4%
3	COc1ccc(Cn2nnnc2C(C(C)C)N2CCN(c3ccccc3OC)CC2)cc1 (configuration not stated)	-14.4	-7.3%	-3.6%	22.5%
4	Cc1cc(N)c(-n2cc3c(=O)n(C)c(=O)n(C)c3c2)cc1C	-8.3	-5.8%	0.3%	-32.4%
5	CCCCn1c(SCC(N)=O)nc2sc3c(c2c1=O)CCC3	.	-6.5%	-4.7%	-0.7%
6	CC1(c2nnc(-c3ccc(F)cc3)o2)CC(c2ccc([N+](=O)[O-])cc2)=NO1 (configuration not stated)	1.5	7.1%	0.2%	-1.9%
7	O=C(CSCc1ccccc1)N1CCN(Cc2ccc3c(c2)OCO3)CC1	-5.9	1.2%	-0.4%	-17.7%
8	CC(=O)Nc1ccc(S(=O)(=O)N(C)CCOCc2ccccc2)cc1	3.3	-19.6%	-1.5%	9.8%
9	CCN1CCN(Cc2nc3ccc([N+](=O)[O-])cc3c(=O)n2-c2ccc(OC)cc2OC)CC1	.	-6.8%	-0.5%	0.7%
10	O=C(COC(=O)CCOc1ccccc1)Nc1cc(S(=O)(=O)N2CCCCC2)ccc1Cl	.	2.3%	1.0%	.
11	O=C(CSCc1ccccc1Br)N/N=C/c1ccc(OCC(=O)N2CCCCC2)cc1	-1.2	7.4%	-3.8%	1.2%
12	O=C(c1cccs1)N1CCN(S(=O)(=O)c2cccc(Cl)c2Cl)CC1	.	-9.0%	3.1%	.
13	CN1CC(=O)N(CC(=O)Nc2ccc3c(c2)CCC3)C1=O	-0.1	24.3%	-5.5%	-6.4%
14	CC(=O)Nc1sc2c(c1C(c1ccccc1)N1CCOCC1)CCCC2 (configuration not stated)	0.8	-5.4%	2.3%	0.4%
15	Cc1cc(C)n(C(=O)CNC(=O)c2ccccc2F)n1	.	-0.3%	-0.2%	2.6%
16	COc1ccc(NC(=O)CNS(=O)(=O)c2ccc(Cl)cc2)cc1OC	8.8	11.3%	1.6%	-6.4%
17	O=C1CC(Nc2ccccc2)C(=O)N1Cc1ccccc1 (configuration not stated)	5.2	3.0%	-0.2%	-6.2%
18	CCOC(=O)c1cnc(N2CCOCC2)[nH]c1=O	-3.9	-15.0%	-1.3%	-4.7%
19	Cc1nc2cc(NS(=O)(=O)c3cccc(F)c3)ccc2s1	-4.9	0.9%	0.3%	0.6%
20	O=C(NCCN1CCCC1)c1cccc(Cl)c1	2.6	-1.6%	0.3%	-3.3%
21	Cc1ccccc1C(=O)NCC(C)NC(=O)c1ccccc1C (configuration not stated)	.	-1.2%	-1.1%	.
22	COC(=O)c1ccc(CN2C(=O)c3ccccc3C2=O)o1	.	-3.9%	1.6%	-1.6%
23	CC(C)n1c(SCC(=O)NC2CC2)nnc1-c1ccco1	.	-11.7%	0.7%	-0.9%
24	Cc1oc(CC(C)C)cc1C(N)=O	1.6	7.5%	1.0%	1.0%
25	CCCC(=O)Nc1ccc(C(=O)N/N=C/c2ccc([N+](=O)[O-])o2)cc1	13.5	-0.4%	-1.9%	?
26	Cc1ccc(-c2nc(SCC(=O)Nc3cc(C)on3)c3c(=O)n(C)c(=O)n(C)c3n2)cc1	.	0.0%	1.1%	2.0%&-0.4%
27	Cc1cc(C)c(NC(=O)C2CCN(C(=O)c3ccco3)CC2)c(C)c1	.	-5.2%	-3.5%	-0.1%
28	Clc1ccc(SCCOCCN2CCCCC2)cc1	-2.7	15.8%	-1.0%	-8.0%
29	COc1cccc(NC(=O)CN(C)C(=O)c2cc(C)oc2C)c1	.	0.2%	-3.0%	.
30	Cc1ccccc1C(=O)Nc1cccc(C#N)c1	-1.3	21.5%	-0.9%	-27.4%
31	COC(CNC(=O)c1ccc2c(c1)ncn2-c1ccc(F)cc1F)OC	4.3	-6.5%	0.1%	-12.3%
32	COCCCNC(=O)c1sc2ncn(CC(=O)Nc3ccc(C)c(Cl)c3)c(=O)c2c1C	6.0	-1.6%	2.0%	-4.6%
33	NC(N)=NS(=O)(=O)c1ccc(N/C=C\C(=O)c2ccncc2)cc1	1.0	?	?	-0.5%
34	O=C1CC(c2ccncc2)c2cc3c(cc2N1)OCCO3 (configuration not stated)	-6.6	0.3%	-0.1%	-6.7%
35	COC(=O)c1ccccc1NC(=O)C1CC(=O)N(C2CCCCC2)C1 (configuration not stated)	7.5	-4.2%	-1.6%	-10.9%
36	Cc1ccc(N2CC(C(=O)N3CCCCC3)CC2=O)cc1C (configuration not stated)	.	4.3%	0.2%	-10.3%
37	CC(=O)c1ccc(NC(=O)CN2C(=O)/C(=C/C(C)=C/c3ccccc3)SC2=S)cc1	-3.5	-18.8%	-0.6%	-10.6%
38	COc1cccc(/C=N/n2c(-c3n[nH]c4c3CCC4)n[nH]c2=S)c1OC	-17.5	-3.6%	3.9%	-0.9%
39	Cc1c(Cl)c(-c2n[nH]c(=S)n2CC(C)C)nn1C	0.6	1.2%	-0.2%	-1.1%
40	COc1ccc(-c2csc(Cc3nc(O)cs3)n2)cc1	-3.4	-15.0%	?	-40.4%
41	CCC(=O)Nc1ccc(C(=O)CN2C(=O)NC3(CCCCCC3)C2=O)cc1	.	-10.8%	-3.0%	.
42	COc1cccc(-c2nc(Oc3cccc(C)c3C)c3ccccc3n2)c1O	-1.1	-2.4%	-1.7%	-6.1%
43	CC(C(=O)NCc1ccccc1Cl)N1C(=O)c2ccccc2C1=O (configuration not stated)	.	-0.9%	0.5%	4.5%
44	COc1ccc(S(=O)(=O)N2CCCC(C(=O)NCc3ccccc3)C2)cc1 (configuration not stated)	.	0.5%	0.9%	-1.1%
45	COc1ccccc1Oc1ccc(S(=O)(=O)N2CCCCC2C)cc1 (configuration not stated)	.	2.0%	0.7%	-2.2%
46	COc1ccc(CCNC(=O)c2ccc(NC(=O)CC3SC(N4CCCC4)=NC3=O)cc2)cc1 (configuration not stated)	.	2.5%	1.2%	.
47	Cc1cc(NC(=O)CN2CC(C)OC(C)C2)n(-c2nc3ccccc3s2)n1 (configuration not stated)	2.1	-7.3%	4.1%	0.4%
48	CCCCn1c(N)c(N(CC(C)C)C(=O)C2CCN(S(=O)(=O)c3ccc(C)cc3C)CC2)c(=O)[nH]c1=O	.	6.8%	5.6%	.
49	CCCCn1c(N)c(N(CC(C)C)C(=O)c2ccc(S(=O)(=O)N3CCCCCC3)cc2)c(=O)[nH]c1=O	.	-3.5%	-1.5%	.
50	CN(C)C1(CN=Cc2cc(Cl)cc([N+](=O)[O-])c2O)CCCCC1	.	0.2%	4.6%	2.4%
51	COc1cc(/C=N\NC(=O)C2COc3ccccc3O2)cc(OC)c1O (configuration not stated)	-8.3	-13.2%	-6.2%	9.6%
52	CC(=O)c1ccc(NC(=O)CSc2nc3[nH]ncc3c(=O)[nH]2)cc1	.	-5.2%	-0.6%	.
53	Cc1cc(OCc2cn(CC(=O)c3ccc(O)cc3)nn2)ccc1[N+](=O)[O-]	.	4.5%	-0.7%	.
54	CC(=O)Nc1ccc(Oc2cncc(Cl)c2)nc1	-3.1	3.5%	-4.6%	11.0%
55	CN(C)C(CNC(=O)CCc1nc2cc(Cl)ccc2n(Cc2ccccc2)c1=O)c1ccccc1 (configuration not stated)	.	-13.0%	-1.5%	.
56	CCN(CC)CCCNC(=O)c1cn(CC)c2ccc(S(=O)(=O)N3CCc4ccccc4C3)cc2c1=O	-5.3	25.0%	-1.6%	-0.4%&4.2%
57	O=C(NCc1ccncc1)c1nc(-c2ccc(C(F)(F)F)cc2)no1	9.1	-17.3%	-1.9%	18.7%
58	COc1ccc(Cl)cc1NS(=O)(=O)c1c(C)nc2sccn2c1=O	.	-10.7%	0.8%	3.1%
59	NC(=O)C1CCN(CC(=O)NC(=O)NC2CCCC2)CC1	8.2	-7.4%	-1.7%	3.3%
60	OCCOCCn1c(C2CCCN2c2nc(-c3ccc(F)cc3)cs2)nc2cc(Cl)c(Cl)cc21 (configuration not stated)	.	18.4%	-2.2%	.

Other records follow.
item	mol	GLA inh pH 4.5	Rango dissoc inh	Rango-impB inh	miR-21 reporter
61	Cc1ccccc1NS(=O)(=O)c1ccc(OCC(=O)NCc2ccccn2)cc1	3.6	6.8%	1.0%	1.6%
62	O=c1cc(-c2ccccc2)nc(N2CCN(Cc3ccc4c(c3)OCO4)CC2)[nH]1	-2.5	-7.0%	-0.2%	-1.6%
63	O=C(CCCN1C(=O)c2ccccc2C1=O)Nc1cccc(S(=O)(=O)NC2=NCCC2)c1	11.9	-8.6%	-1.7%	-0.6%
64	CCOc1cccc2sc(N(CCN(CC)CC)C(=O)c3cccc(N4C(=O)CCC4=O)c3)nc12	.	-12.3%	-3.7%	.
65	O=C(CNC(=O)c1ccco1)Nc1ccc(S(=O)(=O)N2CCCC2)cc1	3.8	2.6%	-1.7%	0.1%
66	Cc1c(CCC(=O)O)c(=O)oc2cc(OCc3cccc(F)c3)ccc12	.	8.6%	1.1%	-17.3%
67	O=C1C(=O)N(CCO)C(c2ccccc2)/C1=C(\O)c1ccccc1 (configuration not stated)	-8.4	12.8%	0.1%	0.2%
68	O=C(CN1C(=O)S/C(=C\c2ccccc2)C1=O)NCCCn1ccnc1	.	2.4%	1.8%	4.6%
69	C/C(=N\Nc1nc2ccccc2nc1C)c1ccccc1O	-4.7	-0.4%	-0.8%	-7.8%
70	Cc1ccc2c(c1)[C@H]1[C@H](CO2)[C@H](c2ccccc2)[C@]2(C)C(=O)Nc3ccc(Cl)cc3C(=O)N12	.	3.7%	0.2%	.
71	CCOC(=O)CSc1nc(=O)n2ccc(C)cc2n1	8.3	6.1%	0.2%	-2.3%
72	CSCCC(NC(=O)c1ccccc1Br)C(=O)Nc1ccc(C)cc1 (configuration not stated)	-3.3	-0.2%	-0.5%	-3.6%
73	O=c1[nH]c(=S)[nH]c(O)c1/C=C1\C=Nc2ccccc21	.	-10.0%	-4.2%	.
74	Cc1ccccc1NC(=O)C1CCN(c2cnccn2)CC1	1.1	-12.3%	1.7%	-6.4%
75	CCCc1nc2c(c(=O)c3ccccc3n2C)c(=O)n1-c1ccc(F)cc1	-9.9	1.8%	1.2%	-0.9%
76	CCOC(=O)N1CCC(Nc2ncnc3c2cnn3-c2ccc(C)cc2C)CC1	2.7	-10.3%	-0.3%	24.2%
77	CCOC(=O)/C=C1/SCC(=O)N1Cc1ccc(Br)cc1	.	-1.0%	2.2%	.
78	CC1CCC/C(=C(\C#N)c2nc(-c3cc4ccccc4oc3=O)cs2)C1 (configuration not stated)	-0.8	-3.0%	-1.2%	-57.6%

An excerpt from the list above:
item	mol	GLA inh pH 4.5	Rango dissoc inh	Rango-impB inh	miR-21 reporter
75	CCCc1nc2c(c(=O)c3ccccc3n2C)c(=O)n1-c1ccc(F)cc1	-9.9	1.8%	1.2%	-0.9%
76	CCOC(=O)N1CCC(Nc2ncnc3c2cnn3-c2ccc(C)cc2C)CC1	2.7	-10.3%	-0.3%	24.2%
77	CCOC(=O)/C=C1/SCC(=O)N1Cc1ccc(Br)cc1	.	-1.0%	2.2%	.
78	CC1CCC/C(=C(\C#N)c2nc(-c3cc4ccccc4oc3=O)cs2)C1 (configuration not stated)	-0.8	-3.0%	-1.2%	-57.6%
